Sfp PPTase inh: inhibitors of Bacillus subtilis Sfp phosphopantetheinyl transferase; Q9F4F7; Biochemical Sfp PPTase activity, qHTS; 310,000 tested, 3.5% active; Potency, µM, inactives show max response, negative = inhibition, actives largely listed as inhibitors; active means well fitted inhibition curve with a large enough effect; inconclusive means small, poorly fitted or top-dose-only effect, or another doubt; inactive means no such curve, though single readings can be large or run the other way;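 further: the enzyme is Sfp with the accession as filed and its product quenches rhodamine fluorescence; potency means the concentration at half of the fitted maximal effect; 0% = enzyme reaction without inhibitor and -100% = no enzyme wells; top concentration of the series not given in the record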
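Step 1, compound plus 15 nM Sfp-PPTase, 15 min, room temperature. Step 2, add rhodamine-CoA (5 uM) and BHQ-2-YbbR (12.5 uM). Step 3, read 525/598 nm fluorescence at 0 and 30 min.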
TRPV1 PAM: enhances activation of the human vanilloid receptor TRPV1; Q8NER1; TRPV1-expressing cells, Fluo-8 calcium influx, capsaicin EC20 potentiation; host cell line not named in the record; control for the full effect not named in the record; potentiation, % at 8.33 µM; 320,000 tested, 0.02% active; AID 540277; active means potentiation above 80%; inconclusive means 30% to 80%; inactive means below 30%; further: 0% is about no effect
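TRPV1-expressing cells were cultured overnight at 35.5C and loaded with Fluo-8 calcium dye for 40 to 90 min at room temperature. After a 10 s baseline, compound was added and calcium influx was read kinetically for 3 min (ex 480/em 520 nm).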
ClpP mod: qHTS Assay for Activators of ClpP; purified B. subtilis ClpP, FRET peptide cleavage, 20 min; 340,000 tested, 1.9% active; AID 651965, 2013; Potency, µM (titrated, usually from 57.5 µM), for inactives: at the highest dose activity change, negative = active; ATP-dependent Clp protease proteolytic subunit (Bacillus subtilis (strain 168)), P80244; active = well fitted falling curve with a large enough effect; inconclusive = small, poorly fitted or top-dose-only effect; inactive = no such curve, though single readings can be large or run the other way; further: potency means the concentration at half of the fitted maximal effect; the source files actives as falling curves though it sought activators and does not explain the sign; nearly all actives have a fitted effect of over 65% in size; many hits overshoot -100%
Target sequence (P80244 whole entry, looked up): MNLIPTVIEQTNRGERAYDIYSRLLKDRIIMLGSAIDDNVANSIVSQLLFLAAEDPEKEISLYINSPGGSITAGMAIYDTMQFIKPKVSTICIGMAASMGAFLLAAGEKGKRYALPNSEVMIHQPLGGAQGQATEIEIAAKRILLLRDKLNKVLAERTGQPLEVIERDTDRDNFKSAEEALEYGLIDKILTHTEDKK
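Buffer: 100 mM Tris/HCl pH8, 100 mM KCl, 0.05% low protease BSA, 2.5% glycerol, 0.01% Tween-20. ClpP 10 microg/mL final; 20 min RT; delta FRET normalized to ADEP and DMSO controls.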
Menin-MLL FL inh: inhibitors of human menin-MLL interaction, wild-type MLL peptide | FP activity change, % at 61.4 µM | AID 1766 | Fluorescence polarization, fluorescein-MLL peptide displacement from menin | 290,000 tested, under 10 active; inconclusive = falling polarisation curve, or a change in total fluorescence; inactive = total fluorescence flat and polarisation flat or rising; no compound was filed as active; the % refers to the polarisation; negative = inhibition;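 further: % of control where 0% means no effect; inhibitors lower the polarisation; unlabelled MLL peptide was the positive control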
TRPML1 inh: inhibitors of human TRPML1 channel; activity change, negative = inhibition, % (concentration not given with the values); Q9GZU1; 390,000 tested, 0.02% active; TRPML1-inducible cells, Ca2+ dye fluorescence, FDSS; active compounds read low; inhibition of EC80 agonist-evoked calcium signal; in the data active means activity change below about -50%; inconclusive means about -30% to -50%; inactive means above about -30%;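 further: stimulus is agonist 54-4 at its EC80 concentration; on the % scale 0 is the no-effect control and ±100 the full control effect; the text of the record puts the active cut at -80%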
Target sequence (Q9GZU1 whole entry, looked up): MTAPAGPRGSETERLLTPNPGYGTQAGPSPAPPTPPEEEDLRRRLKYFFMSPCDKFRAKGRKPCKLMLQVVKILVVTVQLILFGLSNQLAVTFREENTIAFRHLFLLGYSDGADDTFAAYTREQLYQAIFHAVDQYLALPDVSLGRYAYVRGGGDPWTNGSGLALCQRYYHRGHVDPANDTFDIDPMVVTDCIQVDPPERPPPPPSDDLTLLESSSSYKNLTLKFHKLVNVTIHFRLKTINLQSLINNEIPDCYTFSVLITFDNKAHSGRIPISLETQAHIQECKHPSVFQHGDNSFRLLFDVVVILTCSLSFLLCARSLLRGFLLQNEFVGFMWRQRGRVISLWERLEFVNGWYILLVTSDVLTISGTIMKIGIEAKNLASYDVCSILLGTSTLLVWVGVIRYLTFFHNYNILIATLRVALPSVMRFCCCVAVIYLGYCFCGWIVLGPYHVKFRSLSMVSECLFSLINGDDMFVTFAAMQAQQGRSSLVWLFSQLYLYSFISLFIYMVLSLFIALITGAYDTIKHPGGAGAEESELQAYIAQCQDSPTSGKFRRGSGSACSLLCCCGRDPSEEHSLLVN
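Calcium fluorescence in TRPML1-DL cells induced overnight with Tet: a 110 s read after compound pin addition, then a 110 s antagonist read after challenge with 54-4 at 4 uM final (EC80).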
PINK1 expr mod: modulators of PINK1 expression; PINK1 immunofluorescence, high-content cytometry, 24 h; Potency, µM (highest dose often 76.6 µM), without a hit: at the highest dose activation (PINK1 increase), hits mostly activators; 410,000 tested, 0.2% active; AID 624263; active = well fitted activation curve with a large enough effect; inconclusive = small, poorly fitted or top-dose-only effect; inactive = flat fitted curve, though single readings scatter; cell line not stated here;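 further: potency means the concentration at half of the fitted maximal effect; % of control where 0% means no effect; nearly all actives have a fitted effect of over 65% in size; a mitochondrial uncoupler was the plate control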
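Stable cell line treated 24 h with compounds at 5 concentrations (CCCP controls), then fixed and immunostained for PINK1 plus nuclear and cell stains; PINK1 immunofluorescence quantified by laser-scanning microplate cytometry.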
TRPML1 agonist: agonists of human TRPML1 channel | TRPML1-expressing cells, Ca2+ dye fluorescence, FDSS; host cell line not named in the record; reference of the full effect not given here | AID 624414 | Q9GZU1 | activation, % (test concentration not listed) | 410,000 tested, 0.12% active; in the data active = activation above about 50%; inconclusive = about 30% to 50%; inactive = below about 30%; further: 0% is about no effect; the text of the record puts the active cut at 80%
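In this qHTS format, compounds were pin-transferred onto Ca8-dye-loaded TRPML1-DL cells induced with Tet overnight, and intracellular Ca2+ fluorescence was recorded kinetically for 110 s after a 10 s baseline. A subsequent 4uM final 54-4 (EC80) addition followed by a second 110 s read served as the antagonist phase.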
Active calls of the source: *; ? = inconclusive; / = no result given; & = joins results of further samples; [ ] = another dose, or the depositor's remark. Rows are unselected; 4.4% or so of the library scored in one or more.

SMILES	Sfp PPTase inh	TRPV1 PAM	ClpP mod	Menin-MLL FL inh	TRPML1 inh	PINK1 expr mod	TRPML1 agonist
O=C(c1cccs1)N1C[C@H](n2cc(C3CC3)nn2)[C@@H](O)C[C@@H]1c1ccc(Cl)cc1	/	/	-2.4%	/	4.2	3.3%	0.8
O=C(CSc1cn(CCNC(=O)c2ccccc2F)c2ccccc12)Nc1ccc2c(c1)OCCO2	/	/	-1.9%	/	-9.3	2.6%	0.7
O=C1CCCN1CN1CCCCC1	-10.3%	-8.7	-2.0%	1.5	5.6	-2.6%	0.7
COc1ccc(C(=O)Sc2nncc3ccccc23)cc1	50.1µM*	-7.7	/	-1.9	8.3	3.3%	-0.2
O=C(Oc1cccnc1)c1cc(S(=O)(=O)N2CCOCC2)ccc1Cl	14.0%	-6.4	3.6%	2.1	4.1	5.4%[38.3 µM]	0.1
O=C(OCC(=O)N1CCN(S(=O)(=O)c2ccc(Cl)cc2)CC1)C1CCC1	/	-4.6	-2.0%	/	-7.2	-2.0%	-0.5
CCOC(=O)Cc1csc(SCc2cc(=O)oc3cc(O)ccc23)n1	-1.5%	8.4	-12.1%	1.6	1.9	-0.9%	2.9
CN1CCn2c1nc(N1CCCCC1)nc2=O	12.4%	8.0	-0.3%	-3.1	10.2	/	-0.2
Cc1nn(C)c2nc(-c3cccs3)cc(C(F)(F)F)c12	-0.6%	-11.3	/	-0.9	5.3	11.9%	2.0
CCOC(=O)c1cnc(SCc2ccc(C)cc2)nc1N	-4.8%	6.0	-1.6%	4.5	-4.6	3.0%	3.2
COCCN1Cc2cccc(C(=O)Nc3ccc(-c4nc5ccccc5[nH]4)cc3)c2C1=O	11.7%	-0.7	?	3.6	30.4	3.6%	-0.2
COc1ccc(Br)cc1C(=O)N/N=C/c1ccc2c(c1)n(C)c(=O)n2C	10.1%	-2.3	/	6.4	-2.8	-1.7%	-0.6
COc1ccc(C(=O)c2cn(Cc3ccccc3F)c3ccc(F)cc3c2=O)cc1	/	/	-5.0%	/	1.8	-1.9%	-0.3
CN(C)C(CNC(=O)C1CCN(S(=O)(=O)c2cc(Cl)ccc2Cl)CC1)Cc1ccccc1 (stereo not given)	/	/	0.5%	/	5.9	0.7%	-0.1
C=CCOc1ccc(C2/C(=C(\O)c3ccc4c(c3)OCCO4)C(=O)C(=O)N2CCCN2CCOCC2)cc1 (stereo not given)	-4.9%	7.4	-2.0%	-0.2	-21.3	0.4%	0.0
Cc1ccc(OCC(=O)N/N=C\c2ccc(C)o2)c(C)c1	3.0%	3.2	/	-0.3	2.5	1.4%	-1.3
O=C(c1ccc(F)cc1)N1CCN(c2ncccn2)CC1	16.8%	-1.8	-15.7%	0.0	3.7	0.0%	0.1
COc1ccc(S(=O)(=O)N2CC(C)N(C(=O)N(C)C)C2C)cc1 (stereo not given)	4.7%	1.4	/	-0.5	-10.5	1.4%	1.1
O=C(NC1CCCC1)C(c1ccc(F)cc1)N(C(=O)c1csnn1)C1CC1 (stereo not given)	8.2%	4.2	-1.1%	/	-3.0	1.9%	-0.6
COC(=O)c1ccc(NC(=O)c2ccc3c(c2)C(=O)N(C)C3=O)cc1	20.7%	2.7	11.2µM*	-0.2	-4.0	1.0%	-1.3
COC(=O)c1ccccc1NC(=O)CN(Cc1ccccc1)S(C)(=O)=O	0.1%	15.9	?	0.6	-12.0	-1.8%[38.3 µM]	-0.5
CC(=O)N1CCN(S(=O)(=O)c2cccc(C(=O)OCC(=O)N(Cc3ccccc3)C(C)(C)C)c2)CC1	/	/	1.5%	/	-0.1	1.5%	0.8
CCCC[C@@H]1CNCCN1CC1(c2ccccc2)CC1	/	-7.0	-2.5%	/	9.3	2.9%	-0.8
CCc1c(C2(O)CCCCC2)[nH]c2ccc(C#N)cc12	/	/	-16.7%	/	1.7	8.1%	1.3
Cc1ccc(S(=O)(=O)c2nnn3c2nc(NC2CCN(Cc4ccccc4)CC2)c2ccccc23)cc1C	-10.7%	3.4	4.3%	0.5	10.8	-1.5%	3.9
Cc1ccc(CNC(=O)C2CCN(C(=O)c3cnn(-c4ccccc4)c3-n3cccc3)CC2)cc1	/	/	-1.8%	/	9.3	0.9%	2.0
c1ccc(CCCc2nc(-c3cccnc3)no2)cc1	-6.3%	-13.9	/	-0.6	8.4	2.2%	0.1
COc1ccc(NC(=O)CCN2C(=O)[C@@H]3[C@H](C2=O)[C@H]2C=C[C@@H]3C2)cc1	1.0%	-0.4	-0.9%	4.5	/	1.3%	/
COc1ccc(OC)c(S(=O)(=O)Nc2cccnc2)c1	9.4%	?	-1.1%	-0.2	-13.6	12.1%[38.3 µM]	0.3
Cc1cccc(C2Nc3cccc4cccc(c34)N2)c1	-23.1%	3.2	-4.8%	-1.0	3.0	0.4%	2.7
O=C(CSc1ncccc1-c1nc2ccccc2[nH]1)Nc1ccc2c(c1)OCCO2	2.9%	25.5	-24.3%	-6.1	8.1	-2.0%	2.8
CCCCCCN1C[C@H](n2cc(-c3ccc(F)cc3)nn2)[C@@H](O)C[C@@H]1c1ccccc1	/	/	-0.7%	/	6.1	4.2%	0.0
Cc1cccc(NC(=O)c2ccc(S(=O)(=O)N3CCC(C)CC3)cc2)n1	-2.8%	-7.9	-2.0%	/	-27.1	1.6%	-0.1
CCCC[N+](CC#Cc1ccccc1)(CCCC)CCCS(=O)(=O)[O-]	17.8%	2.5	/	1.8	-7.1	-0.5%	0.0
COc1ccc(-c2csc(C(O)c3ccc(F)c(F)c3)n2)cn1 (stereo not given)	/	/	0.0%	/	/	6.6%	-0.7
COc1ccc(NC(=O)CSc2nc(O)cc(=O)n2-c2ccccc2)cc1	4.7%	4.3	-0.8%	/	11.5	0.5%	0.0
CC(C)(C)n1nc2c(c1NC(=O)Cc1ccccc1)CS(=O)(=O)C2	16.4%	0.3	-6.9%	-0.9	43.1	-1.9%	-0.2
Cc1ncsc1CCC(=O)N1CCCC(Nc2ccc(F)c(F)c2)C1 (stereo not given)	16.2%	-9.1	-1.7%	/	-9.7	5.7%	-0.6
COc1c(/C=N/Nc2nc(N3CCCCC3)nc(N3CCCCC3)n2)cccc1[N+](=O)[O-]	14.5%	16.0	0.4%	6.8	-4.7	4.1%[38.3 µM]	2.3
Cc1ccc(-n2ncc(C(=O)NC3CCCCC3)c2C2CCN(C(=O)OC(C)(C)C)CC2)cc1	/	/	-0.9%	/	5.0	1.4%	-0.3
Cc1ccc(-c2csc(NC(=S)NC(=O)c3cc4ccccc4o3)n2)cc1	-1.7%	-7.6	3.1%	/	-6.8	0.4%	-0.2
COc1cc(C(=O)NNC(=S)NC(=O)c2ccccc2C)cc(OC)c1OC	17.7%	0.9	1.0%	-0.6	7.7	-1.8%	12.7
O=C(Nc1ccccc1C(=O)N/N=C/c1ccccc1)c1ccco1	-18.3%	0.0	/	-1.4	13.8	1.4%	1.9
Cc1cccc(N2CCN(C(=O)c3ccoc3C)CC2)c1C	?	2.6	0.2%	1.3	9.9	3.6%	0.6
COc1ccc(Cn2c(CNS(=O)(=O)c3ccc(Cl)s3)nc3cccnc32)cc1	/	/	-1.2%	/	21.0	-0.2%	2.9
O=S(=O)(c1ccc(F)cc1)N1CCN(CC(O)COc2ccccc2F)CC1 (stereo not given)	56.2µM*	-8.9	-0.3%	-2.1	2.1	1.9%	-1.5
CN1CCN(/N=C/c2ccc(Br)cc2)CC1	3.6%	-8.5	/	3.1	13.3	0.3%	0.2
Fc1ccc(-n2nnc(-c3ccnc4ccccc34)n2)cc1	16.8%	12.2	-8.6%	-1.8	39.0	1.6%	1.1
CCOc1cc(/C=C2\CCCc3c2nc2ccccc2c3C(=O)O)ccc1OC	10µM*	-6.0	-3.9%	?	-11.2	1.0%	77.7*
CC1=C(CCN2CCN(C3CCCC3)C(CCO)C2)C(C)(C)CCC1 (stereo not given)	-1.6%	-12.7	/	-2.0	27.4	1.8%	-0.2
O=C(COC(=O)c1cncc(Br)c1)NCc1ccco1	12.6µM*	13.7	0.5%	?	4.8	0.7%	-0.6
CCOC(=O)c1c(-c2ccc(F)cc2)csc1NC(=O)c1c(-c2ccccc2)noc1C	4.3%	12.8	20µM*	3.3	0.6	?	-0.3
CC(NCCc1ccc(S(N)(=O)=O)cc1)C(=O)NCCc1ccc(F)cc1 (stereo not given)	-24.5%	3.5	0.4%	-1.1	10.7	-2.8%	1.0
Cc1ccccc1CSCC(=O)NCCSc1ccccn1	-2.1%	-22.6	/	-2.7	46.3	2.3%	-1.0
CC1CCC(NC(=O)Cn2cc3c(n2)CCCC3)CC1 (stereo not given)	21.1%	5.1	-1.9%	5.0	-6.0	0.8%	0.2
O=C1NC[C@@H](CCCCN2C[C@H](Cc3ccccc3)N(Cc3ccccc3)C(=O)C2=O)N(Cc2ccccc2)C1=O	/	/	0.2%	/	/	-0.7%	-0.7
CCc1nn(CCCC(=O)NC(C)c2ccccc2)c(=O)c2cc3occc3n12 (stereo not given)	17.4%	2.6	-1.6%&-4.4%	-1.8	8.2&-6.1	0.6%&-0.4%	-0.3&0.5
CC(C)(C)c1nnc2sc(SCC(=O)N3CCc4ccccc43)nn2c1=O	-2.7%	8.7	/	-2.5	10.1	-0.8%	1.2
CC1CCN(CCCNC(=O)c2ccc(Cn3c(=S)[nH]c4ccc(Br)cc4c3=O)cc2)CC1	-13.9%	-1.8	/	2.3	/	/	/
COc1cc2c(O)cc(C(=O)O)c(-c3cc(OC)c(OC)c(OC)c3)c2cc1OC	/	/	/	/	6.0	1.6%	-0.2
CC1CCCCN1C(=O)c1cc(S(=O)(=O)N2CCOCC2)ccc1Cl (stereo not given)	/	/	1.9%	/	8.1	0.9%	0.3
CC1(C)CN(C(Cc2ccccc2)C(N)=O)C1=O (stereo not given)	10.5%	-5.2	-0.2%	-3.1	23.3	-2.7%	1.0
O=C(c1ccccc1OCc1ccccc1Br)N1CCN(c2ncccn2)CC1	-3.6%	-8.9	-17.6%	-1.4	6.1	?	0.0
